Screening results from PubChem BioAssay.
FGF22 binding = binders of human FGF22 protein, primary screen, FGF22 synaptogenesis inhibitor project, biophysical, thermal shift, single point; recombinant FGF22 thermal shift, SYPRO orange fluorescence; percent of sucrose octasulfate shift, DMSO zero; calls only at 9.99 µM; 1.5% of 340,000 active; AID 651658, 2012;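 active = melting point raised past a set limit in the mean and every replicate; three in four hits are not shown here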
Target sequence (Q9HCT0 whole entry, looked up): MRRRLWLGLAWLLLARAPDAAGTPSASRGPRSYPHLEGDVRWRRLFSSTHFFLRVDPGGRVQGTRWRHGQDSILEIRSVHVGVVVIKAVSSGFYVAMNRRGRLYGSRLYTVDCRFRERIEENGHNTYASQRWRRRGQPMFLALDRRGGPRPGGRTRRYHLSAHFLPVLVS
Calls only; i = inactive. A portion of the library. The share of hits here may be higher or lower than overall.

structure,FGF22 binding
COc1ccc2c3c([nH]c2c1)[C@H](CO)N(Cc1ccccc1F)CC31CCN(C(=O)C2CCCC2)CC1,i
C[C@@H]1CN([C@H](C)CO)C(=O)Cc2cc(NC(=O)Cc3cn(C)c4ccccc34)ccc2O[C@@H]1CN(C)S(=O)(=O)c1ccc(F)cc1,i
CN(C)C(=O)[C@@H]1[C@@H](CO)[C@@H]2Cn3c(ccc(-c4ccccc4F)c3=O)[C@H]1N2C(=O)c1ccncc1,i
CNC[C@@H]1Oc2ccc(NC(=O)Nc3cccc4ccccc34)cc2C(=O)N([C@H](C)CO)C[C@@H]1C,i
C[C@@H]1CCCCO[C@@H](CN(C)S(=O)(=O)c2ccccc2)[C@H](C)CN([C@@H](C)CO)C(=O)c2cc(NS(=O)(=O)c3cccs3)ccc2O1,i
C[C@H]1CN([C@@H](C)CO)C(=O)c2cc(NC(=O)Nc3ccc(C(F)(F)F)cc3)ccc2O[C@H]1CN(C)C(=O)Nc1ccc2c(c1)OCO2,i
CCCC(=O)Nc1ccc2c(c1)C(=O)N(C)C[C@@H](OC)[C@@H](C)CN(C(=O)C1CCCC1)[C@H](C)CO2,i
C[C@H](NC(=O)[C@@H]1[C@@H](CO)[C@@H]2Cn3c(cccc3=O)[C@H]1N2Cc1ccccc1)c1ccccc1,i
CCS(=O)(=O)Nc1ccc2c(c1)C(=O)N(C)C[C@H](OC)[C@H](C)CN(C(=O)C1CC1)[C@H](C)CO2,i
COc1ccc(C#Cc2cnc3c(c2)C(=O)N([C@H](C)CO)C[C@H](C)[C@H](CN(C)C(=O)CN(C)C)O3)cc1,i
Cc1ccccc1S(=O)(=O)NCC[C@@H]1CC[C@@H](NC(=O)C2CCOCC2)[C@H](CO)O1,i
C[C@H]1CN([C@@H](C)CO)C(=O)c2cccc(NC(=O)c3ccncc3)c2O[C@H]1CN(C)Cc1ccc(C(=O)O)cc1,i
CO[C@@H]1CN(C)C(=O)c2cc(NC(C)=O)ccc2OC[C@H](C)N(C(=O)c2cnccn2)C[C@H]1C,i
O=C(Nc1ccc(F)cc1)N1CCCCN2[C@H](C1)[C@H](c1ccc(C#CC3CC3)cc1)[C@@H]2CO,i
COc1ccc(S(=O)(=O)N[C@@H]2C=C[C@@H](CC(=O)NCCc3ccncc3)O[C@H]2CO)cc1,i
C[C@@H]1CN([C@H](C)CO)C(=O)c2cccc(NS(=O)(=O)c3cn(C)cn3)c2O[C@H]1CN(C)C(=O)Nc1cccc2ccccc12,i
O=C(c1ccccc1F)N1CC[C@@H]2[C@@H](CO)Nc3ccc(C#Cc4ccccc4F)cc3[C@@H]21,i
CNC[C@H]1Oc2c(NC(=O)Nc3ccc4c(c3)OCO4)cccc2C(=O)N([C@@H](C)CO)C[C@H]1C,i
O=C(N[C@H]1C=C[C@@H](CC(=O)N2CCC(Cc3ccccc3)CC2)O[C@H]1CO)c1cnccn1,i
O=C(CN1CCOCC1)N[C@H]1CC[C@@H](CCNC(=O)C2CCCCC2)O[C@@H]1CO,i
C[C@H](CO)N1C[C@H](C)[C@H](CN(C)C(=O)Nc2cccc3ccccc23)Oc2ccc(NS(=O)(=O)c3cn(C)cn3)cc2CC1=O,i
CCCC(=O)Nc1ccc2c(c1)C(=O)N(C)[C@@H]1CC[C@@H](CC(=O)NCCc3ccccc3)O[C@@H]1CO2,i
C[C@@H]1CN([C@@H](C)CO)C(=O)c2cc(NS(=O)(=O)c3ccccc3)ccc2O[C@H]1CN(C)C(=O)Nc1ccc(F)cc1,i
COc1ccc(NC(=O)Nc2ccc3c(c2)C(=O)N([C@H](C)CO)C[C@H](C)[C@H](CN(C)S(=O)(=O)c2ccccc2)O3)cc1,i
CO[C@H]1CC[C@H]2CCN(C)C(=O)CCCN(C)C(=O)c3cc(C#N)ccc3OC[C@@H]1O2,i
Cc1noc(C)c1NC(=O)Nc1cccc2c1O[C@@H](CN(C)CC1CCCCC1)[C@H](C)CN([C@H](C)CO)C2=O,i
C[C@H]1CN([C@@H](C)CO)S(=O)(=O)c2ccc(C3=CCCC3)cc2O[C@H]1CN(C)C(=O)c1cnccn1,i
CCC(=O)N[C@H]1CC[C@H](CC(=O)NCc2ccc(OC)cc2)O[C@@H]1CO,i
CNC[C@H]1Oc2c(NC(=O)C3CC3)cccc2C(=O)N([C@@H](C)CO)C[C@@H]1C,i
Cc1noc(C)c1NC(=O)Nc1cccc2c1O[C@H](CN(C)S(=O)(=O)c1cn(C)cn1)[C@@H](C)CN([C@@H](C)CO)C2=O,i
C[C@@H]1CN([C@H](C)CO)C(=O)c2cc(NS(=O)(=O)c3ccccc3)ccc2O[C@H]1CN(C)Cc1ccc(-c2ccccc2)cc1,i
CO[C@@H]1CC[C@@H]2CCOc3c(C#N)cccc3C(=O)N(C)CC3(CCCCC3)CC(=O)N(C)C[C@H]1O2,i
C[C@H](CO)N1C[C@H](C)[C@H](CN(C)C(=O)Nc2ccc3c(c2)OCO3)Oc2c(NS(=O)(=O)c3ccc(F)cc3)cccc2C1=O,i
C[C@@H]1CN([C@@H](C)CO)C(=O)Cc2cc(NC(=O)C3CCCCC3)ccc2O[C@@H]1CN(C)S(=O)(=O)c1cn(C)cn1,i
C[C@H](CO)N1C[C@H](C)[C@H](CN(C)S(=O)(=O)c2ccccc2)Oc2c(NS(=O)(=O)c3ccc(Cl)cc3)cccc2C1=O,i
CCCN(C)C[C@@H]1Oc2cc(C#CC3CC3)ccc2S(=O)(=O)N([C@@H](C)CO)C[C@@H]1C,i
COC(=O)[C@H]1[C@H](CO)[C@H]2Cn3c(ccc(C4=CCCCC4)c3=O)[C@H]2N1C(=O)C1CCC1,i
CCC(=O)Nc1ccc2c(c1)OC[C@@H](C)N(C(=O)c1cccnc1)C[C@H](C)[C@@H](OC)CN(C)C2=O,i
C[C@@H]1CN([C@H](C)CO)C(=O)c2cc(NS(=O)(=O)c3cn(C)cn3)ccc2O[C@@H](C)CCCCO[C@@H]1CN(C)Cc1ccc(C(=O)O)cc1,i
CN(C)CC(=O)N[C@@H]1CC[C@H](CCn2cc(C3CCCCC3)nn2)O[C@H]1CO,i
CC(C)C#Cc1ccc2c(c1)O[C@H](CN(C)C(=O)c1ccccc1)[C@@H](C)CN([C@H](C)CO)S2(=O)=O,i
Cc1noc(C)c1S(=O)(=O)Nc1ccc2c(c1)C(=O)N([C@@H](C)CO)C[C@H](C)[C@H](CN(C)S(=O)(=O)c1ccc(Cl)cc1)OCCCC[C@H](C)O2,i
C[C@@H]1CN([C@@H](C)CO)C(=O)c2ccccc2-c2ccccc2CO[C@@H]1CN(C)C(=O)c1cc(Cl)cc(Cl)c1,i
CO[C@H]1CN(C)C(=O)c2ccc(NC(=O)Nc3cccc(Cl)c3)cc2OC[C@@H](C)NC[C@H]1C,i
CCC(=O)Nc1ccc2c(c1)C(=O)N(C)C[C@@H](OC)[C@H](C)CN(Cc1cccnc1)[C@@H](C)CO2,i
COc1ccc(NC(=O)N(C)C[C@H]2Oc3ccc(NC(=O)CCCCCC(=O)Nc4ccccc4N)cc3CC(=O)N([C@@H](C)CO)C[C@H]2C)cc1,i
CC(C)NC(=O)Nc1cccc2c1O[C@H](CN(C)S(=O)(=O)c1cn(C)cn1)[C@@H](C)CN([C@@H](C)CO)C2=O,i
C[C@@H]1CN([C@@H](C)CO)S(=O)(=O)c2ccc(-c3ccncc3)cc2O[C@@H]1CN(C)C(=O)c1ccc2c(c1)OCO2,i
O=C(N[C@H]1CC[C@@H](CCNC(=O)C2CCCCC2)O[C@H]1CO)c1ccccn1,i
C[C@H](CO)N1C[C@H](C)[C@@H](CN(C)S(C)(=O)=O)Oc2ncc(C#Cc3cccnc3)cc2C1=O,i
COc1ccc(S(=O)(=O)N(C)C[C@H]2Oc3c(NC(=O)c4ccncc4)cccc3C(=O)N([C@@H](C)CO)C[C@@H]2C)cc1,i
C[C@H](NC(=O)C[C@@H]1C=C[C@@H](NC(=O)C2CCOCC2)[C@H](CO)O1)c1ccccc1,i
CCCC#Cc1ccc([C@H]2[C@@H](CO)N3CCCCN(S(=O)(=O)CC)C[C@H]23)cc1,i
COc1cccc(CNC(=O)[C@H]2CCCN2C(=O)[C@H]2CCCN2C(=O)c2ccc(F)c(C(F)(F)F)c2)c1,i
CO[C@@H]1CN(C)C(=O)c2cc(NS(=O)(=O)Cc3ccccc3)ccc2OC[C@H](C)NC[C@H]1C,i
C[C@@H]1CN([C@H](C)CO)C(=O)c2cc(NC(=O)Nc3cccc4ccccc34)ccc2O[C@H]1CN(C)Cc1ccccc1,i
C[C@@H]1CN([C@H](C)CO)C(=O)c2cccc(NC(=O)Nc3ccc(C(F)(F)F)cc3)c2O[C@H]1CN(C)C(=O)Nc1ccc(C(F)(F)F)cc1,i
CCC(=O)Nc1ccc2c(c1)C(=O)N(C)[C@H]1CC[C@H](CC(=O)N[C@H](C)c3ccccc3)O[C@@H]1CO2,i
O=C(C[C@H]1C=C[C@@H](NC(=O)Cc2ccccn2)[C@H](CO)O1)NCCc1ccncc1,i
C[C@H](CO)N1C[C@H](C)[C@H](CN(C)S(=O)(=O)c2cccs2)Oc2ncc(C#CC(C)(C)O)cc2C1=O,i

Quoted at random: two entries already listed.
structure,FGF22 binding
CCC(=O)Nc1ccc2c(c1)OC[C@@H](C)N(C(=O)c1cccnc1)C[C@H](C)[C@@H](OC)CN(C)C2=O,i
C[C@H](CO)N1C[C@H](C)[C@H](CN(C)S(=O)(=O)c2cccs2)Oc2ncc(C#CC(C)(C)O)cc2C1=O,i

The listing picks up with the six entries that preceded the break.
structure,FGF22 binding
CO[C@@H]1CN(C)C(=O)c2cc(NS(=O)(=O)Cc3ccccc3)ccc2OC[C@H](C)NC[C@H]1C,i
C[C@@H]1CN([C@H](C)CO)C(=O)c2cc(NC(=O)Nc3cccc4ccccc34)ccc2O[C@H]1CN(C)Cc1ccccc1,i
C[C@@H]1CN([C@H](C)CO)C(=O)c2cccc(NC(=O)Nc3ccc(C(F)(F)F)cc3)c2O[C@H]1CN(C)C(=O)Nc1ccc(C(F)(F)F)cc1,i
CCC(=O)Nc1ccc2c(c1)C(=O)N(C)[C@H]1CC[C@H](CC(=O)N[C@H](C)c3ccccc3)O[C@@H]1CO2,i
O=C(C[C@H]1C=C[C@@H](NC(=O)Cc2ccccn2)[C@H](CO)O1)NCCc1ccncc1,i
C[C@H](CO)N1C[C@H](C)[C@H](CN(C)S(=O)(=O)c2cccs2)Oc2ncc(C#CC(C)(C)O)cc2C1=O,i
C[C@H]1CN([C@@H](C)CO)S(=O)(=O)c2ccc(-c3cccc(C#N)c3)cc2O[C@@H]1CN(C)C(=O)c1ccncc1,i
CC(C)C(=O)Nc1ccc2c(c1)C(=O)N(C)[C@@H]1CC[C@H](CC(=O)NCc3cccc(F)c3)O[C@@H]1CO2,i
C[C@H]1CN([C@@H](C)CO)C(=O)Cc2cc(NC(=O)Cc3ccccc3)ccc2O[C@@H]1CN(C)S(C)(=O)=O,i
C[C@@H]1CN([C@@H](C)CO)C(=O)c2c(c3ccccc3n2C)-c2ccccc2CO[C@H]1CN(C)C(=O)Nc1ccccc1,i
CCC(=O)N1[C@H](CN(CC)C(=O)NC2CCCC2)[C@@H](c2ccccc2)[C@@H]1CO,i
CCCC(=O)Nc1ccc2c(c1)OC[C@@H](C)N(Cc1ccc(F)cc1)C[C@H](C)[C@@H](OC)CN(C)C2=O,i
C[C@H](CO)N1C[C@H](C)[C@@H](CN(C)S(=O)(=O)c2cccs2)Oc2ccc(NC(=O)Cn3cnnn3)cc2CC1=O,i
C[C@H](CO)N1C[C@H](C)[C@@H](CN(C)C(=O)Nc2ccc(F)cc2)Oc2ccc(NC(=O)Nc3cccc4ccccc34)cc2CC1=O,i
C[C@H]1CN([C@@H](C)CO)C(=O)c2cc(C#CCN(C)C)cnc2O[C@@H]1CN(C)Cc1ccccc1F,i
C[C@@H]1CN([C@H](C)CO)C(=O)c2cc(-c3ccc(F)cc3)cnc2O[C@H]1CN(C)CC1CCCCC1,i
C[C@@H]1CCCCO[C@@H](CN(C)S(C)(=O)=O)[C@@H](C)CN([C@H](C)CO)C(=O)c2cc(NC(=O)Nc3ccc(C(F)(F)F)cc3)ccc2O1,i
C[C@@H]1CCCCO[C@H](CN(C)Cc2ccncc2)[C@@H](C)CN([C@H](C)CO)C(=O)c2cc(NS(=O)(=O)c3cccs3)ccc2O1,i
C[C@H]1CN([C@@H](C)CO)C(=O)c2c(c3ccccc3n2C)-c2ccccc2CO[C@@H]1CN(C)Cc1cccc2c1OCCCO2,i
C[C@H](CO)N1C[C@H](C)[C@H](CN(C)Cc2ccc(C(=O)Nc3ccccc3N)cc2)Oc2c(NC(=O)Nc3cccc4ccccc34)cccc2C1=O,i
CN1c2ccc(Br)cc2[C@H]2[C@H](CCN2S(=O)(=O)c2ccc(F)cc2)[C@H]1CO,i
COc1ccc(NC(=O)N[C@H]2C=C[C@H](CC(=O)NC3CCCCC3)O[C@H]2CO)cc1,i
Cc1ccc(-c2ccc3c(c2)O[C@@H](CN(C)Cc2ccc(C(=O)O)cc2)[C@@H](C)CN([C@H](C)CO)S3(=O)=O)cc1,i
CC(C)NC(=O)Nc1ccc2c(c1)C(=O)N([C@H](C)CO)C[C@@H](C)[C@H](CN(C)Cc1ccc(Cl)c(Cl)c1)O2,i
COc1cc(CO)cc(I)c1O[C@H]1C=C(C(=O)NCCO)C[C@@H](NC[C@@H]2CCCO2)[C@@H]1O,i
CCCNC(=O)[C@@H]1[C@@H](CO)[C@@H]2Cn3c(cccc3=O)[C@@H]2N1C(=O)CC1CC1,i
COc1ccc(S(=O)(=O)Nc2ccc3c(c2)C(=O)N([C@@H](C)CO)C[C@@H](C)[C@@H](CN(C)C(=O)Nc2ccc4c(c2)OCO4)OCCCC[C@@H](C)O3)cc1,i
C[C@@H]1CN([C@@H](C)CO)C(=O)c2cc(N(C)C)ccc2O[C@@H]1CN(C)C(=O)Nc1cccc2ccccc12,i
